gsp antagonist = antagonists of gsp mutant (McCune-Albright syndrome); gsp-mutant cells, cAMP HTRF, 30 min; control for the full effect not named in the record; Potency, µM (titrated, usually from 76.9 µM), without a hit: top-dose activity change, negative = inhibition, most hits filed as inhibitors; hit rate 0.4% among 340,000; active = falling curve of any shape with a large fitted effect; inconclusive = falling curve, mostly with a smaller effect; inactive = flat or rising curve; cell line not stated here;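 further: intracellular cAMP measured with PDE inhibitor Ro 20-1724 present during compound exposure; potency means the concentration at half of the fitted maximal effect; on the % scale 0 is the no-effect control and ±100 the full control effect; nearly all actives have a fitted effect of over 65% in size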
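G418-selected cells were plated in DMEM/10% FBS for 16-24 h at 37C, then treated with compounds plus the PDE inhibitor […] (300 uM solution added) for 30 min at 37C. Intracellular cAMP was measured by HTRF after 30 min lysis at room temperature.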
Menin-MLL FL inh = inhibitors of human menin-MLL interaction, wild-type MLL peptide; Fluorescence polarization, fluorescein-MLL peptide displacement from menin; 290,000 tested, under 10 active; FP activity change, % at 61.4 µM; inconclusive = falling polarisation curve, or a change in total fluorescence; inactive = total fluorescence flat and polarisation flat or rising; no compound was filed as active; the % refers to the polarisation; negative = inhibition;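 further: % of control where 0% means no effect; inhibitors lower the polarisation; unlabelled MLL peptide was the positive control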
Sfp PPTase inh = blocks B. subtilis Sfp PPTase activity | Biochemical Sfp PPTase activity, qHTS | AID 1490 | Potency, µM, for inactives: max response, negative = inhibition, most hits filed as inhibitors | hit rate 3.5% among 310,000 | Q9F4F7; active means well fitted inhibition curve with a large enough effect; inconclusive means small, poorly fitted or top-dose-only effect, or another doubt; inactive means no such curve, though single readings can be large or run the other way;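 further: the enzyme is Sfp with the accession as filed and its product quenches rhodamine fluorescence; potency means the concentration at half of the fitted maximal effect; 0% = enzyme reaction without inhibitor and -100% = no enzyme wells; top concentration of the series not given in the record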
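Reaction rates are the 30-min fluorescence difference (ex 525, em 598 nm) in wells containing 15 nM Sfp, 5 uM rhodamine-CoA and 12.5 uM BHQ-2-YbbR at pH 7.6 with 10 mM MgCl2.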
ClpP mod = qHTS Assay for Activators of ClpP; AID 651965, 2013; ATP-dependent Clp protease proteolytic subunit (Bacillus subtilis (strain 168)), P80244; hit rate 1.9% among 340,000; Potency, µM (top dose mostly 57.5 µM), for the others: top-dose activity change, negative = active; purified B. subtilis ClpP, FRET peptide cleavage, 20 min; active = well fitted falling curve with a large enough effect; inconclusive = small, poorly fitted or top-dose-only effect; inactive = no such curve, though single readings can be large or run the other way; further: potency means the concentration at half of the fitted maximal effect; the source files actives as falling curves though it sought activators and does not explain the sign; nearly all actives have a fitted effect of over 65% in size; many hits overshoot -100%
Target sequence (P80244 whole entry, looked up): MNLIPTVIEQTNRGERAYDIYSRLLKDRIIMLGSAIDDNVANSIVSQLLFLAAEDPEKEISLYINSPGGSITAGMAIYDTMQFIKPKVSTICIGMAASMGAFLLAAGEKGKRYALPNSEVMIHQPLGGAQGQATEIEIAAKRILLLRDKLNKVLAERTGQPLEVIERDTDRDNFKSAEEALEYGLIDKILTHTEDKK
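ClpP 10 microg/mL final, pH 8 Tris/KCl buffer with BSA, glycerol, Tween-20; compound pinned in; FRET-FV substrate; RT 20 min; Ex320/Em430; ΔFRET vs ADEP 5.8 microM, DMSO, no enzyme.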
gsp agonist = gsp mutant agonism; hit rate 0.13% among 340,000; Potency, µM (series often up to 76.9 µM), without a hit: at the top dose activation (cAMP increase), actives largely listed as activators; gsp mutant cells, cAMP HTRF, 30 min; control for the full effect not named in the record; AID 624287; active = well fitted activation curve with a large enough effect; inconclusive = small, poorly fitted or top-dose-only effect, or another doubt; inactive = no such curve, though single readings can be large or run the other way; cell line not stated here;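 further: phosphodiesterase inhibitor Ro 20-1724 added with compounds to block cAMP breakdown; potency means the concentration at half of the fitted maximal effect; nearly all actives have a fitted effect of over 60% in size; about a fifth of the inactives were tested at one dose only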
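Cells in DMEM/10% FBS with G418 were pretreated with compounds in DMSO plus […] (300 uM stock) for 30 min at 37C. cAMP was measured by HTRF (cAMP-d2 plus anti-cAMP antibody-K) after 30 min at room temperature.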
D2 PAM = positive allosteric modulators of human D2 dopamine receptor | P14416 | DiscoveRx D2 beta-arrestin cells, luminescence, 90 min; 100% = 57 uM dopamine signal | potentiation, % (concentration not given with the values) | hit rate 0.23% among 360,000 | AID 624464; active = potentiation of 50% or more; inconclusive = 30% to 50%; inactive = 30% or less;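 further: compound concentration not given in the record; tested on top of an EC20 dose of dopamine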
Target sequence (P14416 whole entry, looked up): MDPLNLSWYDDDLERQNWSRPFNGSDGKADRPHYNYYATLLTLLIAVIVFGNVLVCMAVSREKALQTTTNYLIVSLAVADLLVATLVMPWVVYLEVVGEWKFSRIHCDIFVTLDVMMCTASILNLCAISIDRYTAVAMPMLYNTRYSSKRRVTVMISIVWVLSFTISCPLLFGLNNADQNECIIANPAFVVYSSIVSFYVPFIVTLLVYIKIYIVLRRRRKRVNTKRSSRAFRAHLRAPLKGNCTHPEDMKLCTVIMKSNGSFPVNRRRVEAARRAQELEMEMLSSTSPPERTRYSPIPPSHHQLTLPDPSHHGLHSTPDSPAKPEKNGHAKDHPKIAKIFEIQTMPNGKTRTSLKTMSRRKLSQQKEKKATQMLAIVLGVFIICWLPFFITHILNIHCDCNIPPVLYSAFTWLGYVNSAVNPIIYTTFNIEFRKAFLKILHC
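PathHunter beta-arrestin assay in DiscoveRx D2 cells. Compounds were added with an EC20 of dopamine (50 nM final) for 90 min at 37 deg C. Luminescence was read 1 h after detection reagent, with 57 uM dopamine as the EC100 control.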
TRPV1 potentiator = enhances activation of the human vanilloid receptor TRPV1; hit rate 0.02% among 320,000; TRPV1-expressing cells, Fluo-8 calcium influx, capsaicin EC20 potentiation; host cell line not named in the record; control for the full effect not named in the record; AID 540277; Q8NER1; potentiation, % at 8.33 µM; active means potentiation above 80%; inconclusive means 30% to 80%; inactive means below 30%; further: 0% is about no effect
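TRPV1-expressing cells were cultured overnight at 35.5C and loaded with Fluo-8 calcium dye for 40 to 90 min at room temperature. After a 10 s baseline, compound was added and calcium influx was read kinetically for 3 min (ex 480/em 520 nm).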
The depositor's hits bear a star; ? = inconclusive; . = no result given; & = joins results of further samples; [ ] = remark or other dose.

# | compound | gsp antagonist | Menin-MLL FL inh | Sfp PPTase inh | ClpP mod | gsp agonist | D2 PAM | TRPV1 potentiator
1 | O=C(O)CC(NS(=O)(=O)c1c(F)cc(F)cc1Br)c1ccccc1Cl (stereo not given) | 5% | -2.8 | 8% | . | -35%[inhibitor] | -1 | 4
2 | CC(=O)Nc1ccc(NC(=O)c2ccccc2N(C)S(=O)(=O)c2ccccc2)cc1 | 7% | -4.5 | 18% | -0.7% | -5%[15.4 µM] | -2 | -12
3 | CCOC(=O)Cn1c(=O)c2c(nc3n2CCCN3CCc2ccccc2)n(C)c1=O | -15% | -4.0 | 11% | . | -42%[inhibitor] | 0 | 1
4 | CN(C)c1ccc(C(=O)Nc2ccc(O)c3c(=O)cc(-c4ccccc4Cl)oc23)cc1 | -8% | -6.5&-2.0 | 6%&-4% | -12% | . | -5 | -3
5 | OCCC1CN(Cc2ccc(-n3cccn3)cc2)CCN1Cc1ccccc1 (stereo not given) | 7% | -1.0 | 16% | . | -24% | -7 | 4
6 | NC(=O)C12CCCC(Br)(CCC1)C2 | 11% | -2.1 | 8% | . | 9% | -4 | ?
7 | CNC(=O)Nc1cc(C(C)(C)C)no1 | 7% | 7.1 | 17% | -0.5% | 0% | 3 | 6
8 | Cc1ccc(C(=O)OCC(=O)Nc2cc(S(=O)(=O)N3CCOCC3)ccc2C)cc1 | -12% | -2.8 | 15% | 4.6% | 2% | -18 | -10
9 | Cc1ccc(C(=O)NCCCn2ccnc2)cc1[N+](=O)[O-] | 0% | 4.1 | -6% | 0.6% | -36%[inhibitor] | -28 | 8
10 | CCC(C)c1ccc(S(=O)(=O)N2CCN(C(=O)COc3ccc4c(C)cc(=O)oc4c3)CC2)cc1 (stereo not given) | -16% | -0.5 | 1% | ? | ? | -10 | 12
11 | Cc1[nH]n(-c2ccc([N+](=O)[O-])cc2)c(=O)c1C=NCCc1c[nH]c2ccccc12 | -14% | 3.3 | -19% | 2.5% | 4%[15.4 µM] | -9 | -3
12 | O=C(CN1CCCCC1)c1c[nH]c2ccccc12 | 9% | -1.5 | 11% | 0.6% | -15% | 1 | -11
13 | CCONC(=O)Nc1ccccc1[N+](=O)[O-] | 4% | -0.2 | -5% | 0.4% | 7% | -4 | 9
14 | NS(=O)(=O)c1ccc(CCNc2nc3c(-c4cccc(F)c4)nnn3c3ccccc23)cc1 | 28% | 1.9 | ? | 22µM* | ? | -14 | 3
15 | CSc1nc(-c2ccco2)nn1S(=O)(=O)c1ccccc1 | . | -0.8 | ? | . | . | . | -3
16 | CCC(C)NC(=O)Cn1cnc2sc(C)cc2c1=O (stereo not given) | 9% | -6.7 | 22% | -3.7% | 1% | 3 | 7
17 | COc1ccc(C(=O)NC2CCCc3ccccc32)cc1Br (stereo not given) | -24% | 2.0 | 5% | -3.5% | 2%[15.4 µM] | 0 | ?
18 | Cc1ccc2oc(C(=O)N(Cc3ccc(N(C)C)cc3)C3CCS(=O)(=O)C3)c(C)c2c1 (stereo not given) | ? | . | 4% | 0.7% | ? | -7 | 3
19 | COc1cc(-c2c(-c3ccsc3)sc3ccccc23)cc(OC)c1OC | -3% | . | . | -21% | -31%[inhibitor] | -1 | 4
20 | Cc1ccc(C)c(N(CC(=O)NC(C)(C)C)C(=O)CNC(=O)c2cccs2)c1 | 6% | -2.3 | 25% | . | 7% | -4 | 5

# | compound | gsp antagonist | Menin-MLL FL inh | Sfp PPTase inh | ClpP mod | gsp agonist | D2 PAM | TRPV1 potentiator
21 | CC(OC(=O)c1nc(-c2ccccc2)n(-c2ccccc2)n1)C(=O)Nc1cc(Cl)cc(Cl)c1 (stereo not given) | -7% | 1.7 | 12% | -0.9% | 3% | -2 | -3
22 | O=C(CC1C(=O)NCCN1CC1CCCCC1)NC1(c2ccccc2)CC1 (stereo not given) | 5% | -0.2 | 3% | . | -32%[inhibitor] | 5 | 3
23 | CC1CN(C(=O)c2cccc(S(=O)(=O)Nc3cc(Cl)ccc3Cl)c2)CC(C)O1 (stereo not given) | . | -4.3 | 28% | . | -4%[15.4 µM] | 5 | 2
24 | COc1ccc(C(=O)/C=C/c2ccc(OC)c(O)c2)c(F)c1 | -3% | -0.5 | 50µM* | 0.4% | -3% | -3 | 6
25 | CCOC(=O)CNC(=O)N1CCc2ccc(NC(=O)c3ccccc3OC)cc2C1 | -8% | 6.1 | 11% | . | -2% | -1 | -15
26 | O=C1NC(c2ccc(Cl)cc2Cl)Oc2ccccc21 (stereo not given) | 5% | -0.9 | 11% | . | -45%[inhibitor] | -2 | -5
27 | CC(C)OC(=O)Cn1nnc(-c2ccccc2)n1 | -3% | 0.8 | 15% | -1.5% | 17% | -3 | -9
28 | CCN(C(=O)c1ccc(Br)cc1)c1ccccc1 | 6% | 0.5 | 12% | -2.5% | -5%[15.4 µM] | -7 | 1
29 | c1csc(-c2csc(-c3cccs3)n2)c1 | 1% | 0.4 | ? | -22% | 18% | -6 | -13
30 | CC/C(O)=C1\C(=O)CC(c2ccccc2)CC1=NC(C)C (stereo not given) | -8% | -1.9 | -1% | -0.7% | -10% | -20 | -16
31 | Cc1nn(Cc2ccccc2)c(Cl)c1C(=O)NCc1ccco1 | 8% | -7.3 | 16% | 34% | 2%[15.4 µM] | -9 | -17
32 | COc1ccc(NC(=O)Nc2ccc3c(c2)C(=O)N([C@@H](C)CO)C[C@@H](C)[C@@H](CN(C)CC2CCCCC2)O3)cc1 | 12% | . | . | -0.2% | . | -8 | .
33 | CCOC(=O)c1c(C=O)c(C)n(Cc2ccccc2Cl)c1C | 2% | 3.1 | 6% | -2.3% | 1% | 2 | -12
34 | O=C(COc1ccc(Br)cc1)NCc1ccccn1 | -4% | 0.2 | 21% | -2.7% | -5% | 3 | 2
35 | O=C1c2cccc3c(O)ccc(c23)C(=O)N1c1ccc(Cl)cc1 | ? | ? | ? | . | ? | 12 | 3
36 | CSCCC(NC(=O)c1ccccc1Cl)C(=O)N(C)Cc1cccs1 (stereo not given) | -6% | -1.3 | -5% | -0.1% | -3% | -5 | 4
37 | CCCC(=O)n1nc(NCc2ccc(OC)cc2)nc1NCc1ccc(OC)cc1 | -10% | -1.9 | 11% | . | 5% | 3 | 7
38 | CC(C)(C)OC(=O)N(Cc1ccccc1)Cc1cccc(OCc2cccc(NC(=O)C3CC3)c2)c1 | -23% | . | . | -4.8% | . | -7 | .
39 | COC(=O)[C@H]1C[C@@]2(O)CN(S(=O)(=O)c3ccc(C)cc3)C[C@@]2(OC(=O)Nc2cccs2)C[C@H]1C(=O)OC | . | . | . | -1.0% | -6% | 3 | .
40 | Cc1nn(Cc2ccc(Cl)c(Cl)c2)c(C)c1NC(=O)c1cc(-c2ccco2)on1 | 32µM* | 18 | 45µM* | -13% | 5% | 7 | 6

# | compound | gsp antagonist | Menin-MLL FL inh | Sfp PPTase inh | ClpP mod | gsp agonist | D2 PAM | TRPV1 potentiator
41 | O=C(NN=Cc1ccccc1OC(F)F)c1ccc(NS(=O)(=O)c2cccs2)cc1 | -12% | . | . | ? | -6% | 12 | .
42 | CC(C)(C)OC(=O)NC(CCNC=C1C(=O)OC(C)(C)OC1=O)C(=O)O (stereo not given) | 12% | 0.8 | -2% | -0.6% | -20% | -4 | -3
43 | CCc1nc(N[C@@H](CC(C)C)C(=O)O)c2oc3ccccc3c2n1 | -14% | 7.0 | 10% | -3.6% | -24% | -6 | -1
44 | CCOC(=O)/C(N=Nc1sc(C(=O)OCC)c(C)c1C(=O)OCC)=C(\C)O | . | 5.1 | -1% | . | . | . | 5
45 | O=C(c1ccc(NC(=S)Nc2ccc(Cl)c(Cl)c2)cc1)N1CCCC1 | -10% | -0.5 | ? | -0.8% | 5%[15.4 µM] | -2 | 2
46 | COc1ccc(OC)c(CNC(=O)C2CCN(S(=O)(=O)N3CCCCC3)CC2)c1 | 4% | . | 12% | 1.2%&1.4% | -1% | -10 | -18
47 | Cc1ccc(C)c(N2CCN(C(=O)CCc3nc(-c4ccccc4)no3)CC2)c1 | ? | . | . | -1.1% | . | 2 | .
48 | CCC(c1nnnn1CCc1ccccc1)N1CCN(C(=O)c2ccco2)CC1 (stereo not given) | -6% | -0.5 | 4% | -0.3% | -3% | -11 | 2
49 | O=C(CCc1nc2sc3c(c2c(=O)[nH]1)CCCC3)NCCc1ccc(Cl)cc1 | . | . | . | -12% | ? | -23 | .
50 | CS(=O)(=O)N1CCN(C(=O)c2ccc(-c3ccccc3)cc2)CC1 | 4% | 0.0 | -8% | -4.9% | 11% | -11 | -9
51 | CCOC(=O)C/C(C)=N/NC(=O)C1CC1(c1ccccc1)c1ccccc1 (stereo not given) | 4% | 3.7 | 26% | 2.2% | -2%[15.4 µM] | 5 | 14
52 | CC[C@]12c3[nH]c4cc(-c5ccco5)ccc4c3CCN1C(=O)[C@@H](CC(=O)NCCc1ccccn1)C[C@@H]2C(=O)N1CCN(C(=O)C2CC2)CC1 | -8% | . | . | 3.0% | . | 0 | .
53 | COc1ccc(NC(=S)N2CCCN(Cc3cccc(Cl)c3)C2)cc1 | -10% | 0.3 | 21% | . | -4% | -15 | 22
54 | CC(=O)c1cccc(NC(=O)CN2CCN(S(=O)(=O)/C=C/c3ccccc3)CC2)c1 | -11% | . | . | 1.7% | -11% | 2 | -5
55 | CNC(=S)Nc1ccc(OCc2ccccc2)cc1 | 1% | 0.0 | -7% | 2.2% | ? | -17 | 6
56 | Cc1cc(C)c(NC(=S)N(CCc2ccncc2)C(C)C)c(C)c1 | -3% | 0.4 | -9% | 1.8% | -21% | -7 | 1
57 | O=C(O)CSc1cc(C(=O)c2ccccc2O)cn2c(=O)c3c(-c4ccccc4)csc3nc12 | -36% | 30 | ? | -0.3% | -19% | -10 | -13
58 | CCOc1ccc(N(CC(=O)Nc2ccc(CC)cc2)S(=O)(=O)c2c(C)[nH]c(=O)[nH]c2=O)cc1 | 0% | . | 13% | -3.5% | 2% | -6 | -4
59 | Cc1ccc2c(c1)CCCN2C(=O)c1ccco1 | 2% | 1.0 | -4% | 0.4% | -23% | -15 | -6

Compound activity as filed in PubChem BioAssay.
